Ecoli rRNA inh: reduced GFP signal of wild-type E. coli, primary screen, bacterial rRNA inhibitor project, GFP/RFP fluorescence, OD600, single point. GFP signal change (wild-type ribosome), % (concentration not given with the values). AID 720706, 2013. E. coli WT GFP vs humanized-ribosome RFP mutants, 24 h; hits give low values; DMSO median 0, no signal -100. 350,000 tested, 1.6% active;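 active = significant combined selectivity score with lowered wild-type GFP, culture density cut under 30%, mutant RFP and density less affected; inactive = any of these conditions unmet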; also: one replicate is shown; some compounds called inactive have numbers as strong as hits
MLL AF4-AF9 inh: inhibitors of AF4 peptide binding to AF9, primary screen, biochemical, AlphaScreen, biotin-AF4 peptide, FLAG-AF9, single point | Protein AF-9 (Homo sapiens), P42568 | inhibition, % at 10 µM | 350,000 tested, 0.47% active | AID 651704, 2012;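 active = every replicate reaching a set inhibition limit, whatever the replicate mean, cut at about 25% in these data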;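 also: 0% = plate neutral control median and 100% = total signal loss; the record names both 10 and 1 µM as test concentration; the first replicate is given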
Target sequence (P42568 whole entry, looked up): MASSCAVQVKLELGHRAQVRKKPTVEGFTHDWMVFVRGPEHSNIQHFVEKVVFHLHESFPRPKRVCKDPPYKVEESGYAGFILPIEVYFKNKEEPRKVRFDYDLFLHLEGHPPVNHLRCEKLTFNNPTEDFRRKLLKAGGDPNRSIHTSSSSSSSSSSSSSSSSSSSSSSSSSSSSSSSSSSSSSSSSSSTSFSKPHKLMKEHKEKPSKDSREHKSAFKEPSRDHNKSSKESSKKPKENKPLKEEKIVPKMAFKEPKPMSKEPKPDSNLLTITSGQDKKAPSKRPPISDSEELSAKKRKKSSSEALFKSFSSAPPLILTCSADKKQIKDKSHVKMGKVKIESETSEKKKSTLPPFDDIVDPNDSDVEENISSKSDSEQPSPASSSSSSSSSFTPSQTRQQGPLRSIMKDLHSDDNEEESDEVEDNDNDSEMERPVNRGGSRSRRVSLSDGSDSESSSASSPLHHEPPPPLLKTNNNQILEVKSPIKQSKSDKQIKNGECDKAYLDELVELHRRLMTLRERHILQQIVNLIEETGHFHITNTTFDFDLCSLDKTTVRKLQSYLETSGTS
FGF22 binding: binders of human FGF22 protein, primary screen, FGF22 synaptogenesis inhibitor project, biophysical, thermal shift, single point; Fibroblast growth factor 22 (Homo sapiens), Q9HCT0; calls only at 9.99 µM; 340,000 tested, 1.5% active; recombinant FGF22 thermal shift, SYPRO orange fluorescence; percent of sucrose octasulfate shift, DMSO zero;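 active = melting point raised past a set limit in the mean and every replicate; three in four hits are not shown here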
Target sequence (Q9HCT0 whole entry, looked up): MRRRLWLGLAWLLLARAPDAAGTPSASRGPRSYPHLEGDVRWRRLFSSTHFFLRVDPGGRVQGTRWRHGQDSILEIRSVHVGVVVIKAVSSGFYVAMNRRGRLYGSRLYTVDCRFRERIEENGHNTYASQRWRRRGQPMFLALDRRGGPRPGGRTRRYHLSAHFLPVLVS
Ecoli rRNA inh OD600: recorded beside Ecoli rRNA inh, whose call it bears; OD600 change, %; measured here: OD600 growth;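 optical density of the mix in the first replicate; 0 = DMSO median and -100 = no signal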
Ecoli rRNA inh RFP: second read-out of Ecoli rRNA inh, no call of its own (marks repeat the call); RFP signal change, %; measured here: RFP humanized mutant strains;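 first replicate; 0 = DMSO median and -100 = no signal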
* = called active by the depositor; i = inactive; / = not tested or not shown. An excerpt, so the mix of outcomes need not match the whole.

SMILES	Ecoli rRNA inh	Ecoli rRNA inh OD600	Ecoli rRNA inh RFP	MLL AF4-AF9 inh	FGF22 binding
CN(C)C(=O)C[C@H]1C=C[C@H](NC(=O)NC2CCCC2)[C@@H](CO)O1	0	4	-1.8	-1.9	i
COc1ccc2c3c(n(C)c2c1)[C@@H](CO)N(Cc1ccccc1)CC31CN(C)C1	2	5	-4.5	2.6	i
COCC#Cc1ccc([C@H]2[C@H]3CN(C(=O)c4ccncc4)CC(=O)N3[C@H]2CO)cc1	4	10	-3.2	-4.4	i
Cc1noc(C)c1NC(=O)N(C)C[C@@H]1Oc2ccc(NC(=O)C3CC3)cc2CC(=O)N([C@@H](C)CO)C[C@H]1C	5	7	-1.2	-1.7	i
O=C(NCC[C@@H]1CC[C@H](NC(=O)Nc2cc(F)ccc2F)[C@H](CO)O1)Nc1ccc(F)cc1	-5	-9	0.5	17	i
C[C@H]1CN([C@@H](C)CO)C(=O)c2cc(NC(=O)C3CCCCC3)ccc2O[C@@H]1CN(C)Cc1ccc(Cl)c(Cl)c1	-2	-10	3.0	0.0	i
CN1C(=O)c2cc(NC(=O)Cc3cccs3)ccc2OC[C@@H]2O[C@H](CC(=O)N[C@@H]3CCN(Cc4ccccc4)C3)CC[C@H]21	1	-6	1.3	1.1	i
O=c1cc(CN2CCCCC2)c2ccccc2o1	6	7	-6.8	1.6	i
CC(C)c1ccc(CC(=O)N2CCC2(C)C(=O)NCCC#N)cc1 (centres undefined)	2	5	7.7	-0.4	i
CC(C)C#Cc1ccc([C@@H]2[C@@H](C#N)N(C(=O)c3cccc(F)c3)[C@H]2CO)cc1	-13	-51	13	-1.8	i
CC(C)NC(=O)N1[C@H](C#N)[C@@H](c2ccc(C#CC3CCCCC3)cc2)[C@H]1CO	1	-2	-0.5	-1.9	i
COc1ccc(-c2ccc(CN3C(C(C)C)C(=O)N(Cc4cn(CC5CCCCC5)nn4)CCS3(=O)=O)cc2)cc1OC (centres undefined)	6	5	0.4	0.7	i
CCCN(C)C[C@H]1Oc2ncc(C#CC3(O)CCCC3)cc2C(=O)N([C@@H](C)CO)C[C@H]1C	4	11	2.7	-0.2	i
CO[C@H]1CN(C)C(=O)c2cc(NC(=O)NC3CCCCC3)ccc2OC[C@H](C)NC[C@H]1C	5	6	1.9	-1.2	i
C=C(NC(=O)C(=C)NC(=O)c1csc(C2=NC3c4csc(n4)C4NC(=O)c5csc(n5)C(C(C)(O)C(C)O)NC(=O)C5CSC(=N5)/C(=C/C)NC(=O)C(C(C)O)NC(=O)c5csc(n5)C3(CC2)NC(=O)C(C)NC(=O)C(=C)NC(=O)C(=C)NC(=O)C(C(C)C)NC2C=Cc3c(C(C)O)cc(nc3C2O)C(=O)OC4C)n1)C(N)=O (centres undefined)	1	11	4.5	0.7	i
CCOC1=C2CN(S(=O)(=O)c3ccc(C)cc3)[C@@H](c3cccc4ccccc34)C[C@H]2[C@H]2C(=O)N(c3ccccc3)C(=O)[C@H]2C1	28	2	8.4	-6.7	i
O=c1[nH]c(=S)[nH]c2c1[C@H](C1CC1)O[C@H](CCc1ccccc1)C2	-3	-16	-1.8	-2.8	i
CCC(=O)N(C)C[C@H]1[C@@H](c2ccc(C3=CCCC3)cc2)[C@@H](CO)N1C(=O)CC	0	-1	-2.0	0.1	i
COc1ccccc1-c1ccc2c(c1)O[C@@H](CN(C)C(=O)c1cccnc1)[C@@H](C)CN([C@H](C)CO)S2(=O)=O	-4	0	1.5	-1.5	i
CCCNC(=O)C[C@@H]1CC[C@@H]2[C@@H](COc3ccc(NC(=O)CC)cc3C(=O)N2C)O1	2	20	-2.1	-3.9	i
COc1ccc(NC(=O)Nc2cccc3c2O[C@@H](CN(C)Cc2ccncc2)[C@@H](C)CN([C@@H](C)CO)C3=O)cc1	-2	-4	-1.4	-2.2	i
CCCC(=O)Nc1ccc2c(c1)OC[C@H](C)N(Cc1ccncc1)C[C@H](C)[C@H](OC)CN(C)C2=O	-3	-6	-2.4	-1.1	i
Cc1noc(C)c1NC(=O)Nc1ccc2c(c1)C(=O)N([C@H](C)CO)C[C@H](C)[C@H](CN(C)CC1CCCCC1)OCCCC[C@H](C)O2	3	7	2.4	-1.3	i
C[C@H]1CCCCO[C@H](CN(C)C)[C@@H](C)CN([C@@H](C)CO)C(=O)c2cc(N(C)C)ccc2O1	3	7	1.1	1.4	i
CN(C[C@@H]1[C@@H](c2ccccc2)[C@H](CO)N1C(=O)c1ccccc1)C(=O)C1CC1	0	5	-4.1	-1.9	i
O=c1cc(CN2CCN(c3ccc(Cl)c(Cl)c3)CC2)c2c(ccc3ccccc32)o1	3	6	-1.1	1.4	i
COc1ccc(NC(=O)N(C)C[C@H]2Oc3ccc(NC(=O)Nc4cccc5ccccc45)cc3CC(=O)N([C@@H](C)CO)C[C@@H]2C)cc1	-4	3	-1.5	3.6	i
C[C@@H]1CN([C@@H](C)CO)C(=O)c2c(c3ccccc3n2C)-c2ccccc2CO[C@H]1CN(C)Cc1ccc(C(F)(F)F)cc1	3	8	-2.6	-1.8	i
C[C@@H]1CN([C@@H](C)CO)C(=O)c2cc(C#CC3CCCCC3)cnc2O[C@H]1CN(C)C(=O)NC1CCCC1	4	-7	2.6	-2.8	i
COCC#Cc1cnc2c(c1)C(=O)N([C@@H](C)CO)C[C@H](C)[C@@H](CN(C)C(=O)Cc1ccncc1)O2	5	7	-2.7	-1.1	i

An excerpt from above, limited to Ecoli rRNA inh RFP and MLL AF4-AF9 inh:
smiles	Ecoli rRNA inh RFP	MLL AF4-AF9 inh
COc1ccc(NC(=O)Nc2cccc3c2O[C@@H](CN(C)Cc2ccncc2)[C@@H](C)CN([C@@H](C)CO)C3=O)cc1	-1.4	-2.2
CCCC(=O)Nc1ccc2c(c1)OC[C@H](C)N(Cc1ccncc1)C[C@H](C)[C@H](OC)CN(C)C2=O	-2.4	-1.1

Going on with the list:
SMILES	Ecoli rRNA inh	Ecoli rRNA inh OD600	Ecoli rRNA inh RFP	MLL AF4-AF9 inh	FGF22 binding
O=C(Cc1ccccn1)NCC[C@@H]1CC[C@H](NC(=O)Nc2ccc(C(F)(F)F)cc2)[C@H](CO)O1	-2	-2	3.0	1.2	i
O=C(CSc1ccc2c(c1)OCCO2)Nc1ccccc1	7	13	-0.5	-3.3	i
CCN1[C@@H]2c3ccc(-c4cccc(C(=O)N(C)C)c4)c(=O)n3C[C@@H]2[C@@H](CO)[C@@H]1C(=O)OC	2	3	-0.8	-1.3	i
CCNC(=O)C[C@@H]1C=C[C@H](NS(=O)(=O)c2ccc(F)cc2)[C@H](CO)O1	1	3	0.1	0.2	i
COCOCCn1cc(CN2CCS(=O)(=O)N(Cc3ccc(-c4ccc(Cl)nc4)cc3)C(C(C)C)C2=O)nn1 (centres undefined)	-11	-13	-1.6	-0.3	i
CS(=O)(=O)N1CC2(C1)[C@H](c1ccccc1)[C@@H](CO)N2C(=O)C1CCC1	0	7	-3.9	-1.5	i
COc1ccc(-c2ccc3[nH]c4c(c3c2)CCN2C[C@@H]([C@H](C)O)[C@@H](N(C)C(=O)Nc3cc(Cl)cc(Cl)c3)C[C@@H]42)cc1	-10	-22	5.6	4.6	i
Cc1noc(C)c1NC(=O)N[C@H]1CC[C@H](CCNC(=O)C2CCCC2)O[C@H]1CO	2	3	-1.0	-3.0	i
Cc1ccc(CN2C(=O)c3ccccc3C2c2nnnn2C(C)C)cc1 (centres undefined)	-5	0	5.2	1.4	i
COCC(=O)N1CC2(C1)CN(C(=O)Cc1ccccc1)[C@H](CO)c1c2c2ccc(OC)cc2n1C	0	-1	-2.3	0.8	i
COc1ccc(NC(=O)N2CC[C@@H]3[C@H]2c2cc(-c4ccc(F)cc4)ccc2N(C)[C@H]3CO)cc1	-8	0	9.8	9.4	i
COc1ccc(S(=O)(=O)N(C)C[C@@H]2OCCCC[C@H](C)Oc3ccc(NC(=O)c4ccccc4)cc3C(=O)N([C@H](C)CO)C[C@@H]2C)cc1	2	-4	2.8	-1.4	i
CC(C)NC(=O)N(C)C[C@@H]1Oc2ccc(NS(=O)(=O)c3ccccc3)cc2CC(=O)N([C@H](C)CO)C[C@@H]1C	9	12	2.9	-2.5	i
Cc1noc(C)c1S(=O)(=O)Nc1ccc2c(c1)C(=O)N([C@H](C)CO)C[C@@H](C)[C@H](CN(C)C(=O)NC1CCCCC1)OCCCC[C@@H](C)O2	0	-1	1.5	3.1	i
O=S1(=O)C[C@@H](N2CCN(CC3CC3)CC2)[C@H](COCc2ccccc2)N1	9	9	-2.5	-36	i
C[C@H](CO)N1C[C@H](C)[C@H](CN(C)Cc2ccc(C(=O)O)cc2)OCCCC[C@H](C)Oc2ccc(NS(C)(=O)=O)cc2C1=O	0	4	0.3	-4.4	i
CC(C)NC(=O)Nc1ccc2c(c1)C(=O)N([C@H](C)CO)C[C@@H](C)[C@H](CN(C)Cc1ccccc1)OCCCC[C@@H](C)O2	4	11	-0.7	-1.4	i
COc1ccc(-c2cccc(N3CCN(c4ccccn4)CC3)n2)cc1OC	-4	12	-0.4	3.8	i
CCOC(=O)C1(C)CCCN1C(=O)c1sccc1C (centres undefined)	3	5	1.7	-3.0	i
Cn1c(=O)c2c(-c3ccccc3)n(-c3cccc(O)c3)cc2n(C)c1=O	7	23	20	3.8	/
O=C(C[C@@H]1CC[C@@H]2[C@H](COC[C@H](O)CN2Cc2ccccc2)O1)NCc1ccccc1Cl	-4	0	-1.7	-0.9	i
COCC(=O)N1[C@H](CO)[C@@H](c2ccccc2)C12CN(C(=O)c1ccc(F)cc1)C2	-1	-2	2.9	-3.1	i
CN1C(=O)c2cc(NC(=O)C3CC3)ccc2OC[C@H]2O[C@H](CC(=O)NCc3ccccc3F)CC[C@H]21	5	3	-0.4	-19	i
COC(=O)C[C@@H]1C=C[C@@H](NC(C)=O)[C@@H](CO)O1	6	12	1.9	-0.7	/
COc1ccc(S(=O)(=O)N(C)C[C@@H]2OCCCC[C@@H](C)Oc3ccc(NC(=O)Cc4ccccc4)cc3C(=O)N([C@@H](C)CO)C[C@H]2C)cc1	0	4	-0.6	-0.6	i
COc1ccc(-c2cnc3c(c2)C(=O)N([C@H](C)CO)C[C@@H](C)[C@H](CN(C)C(=O)C2CCC2)O3)cc1	-5	-7	0.4	-13	i
CC(C)CC#Cc1ccc2c(c1)O[C@@H](CN(C)Cc1ccc(C(=O)O)cc1)[C@H](C)CN([C@@H](C)CO)S2(=O)=O	-3	6	-4.8	5.5	i
CN(C)C(=O)c1cccc(-c2cnc3cccnn23)c1	11	6	-0.9	-0.3	i
COc1ccc2c(c1)C(CC(C)=O)N(c1ccc(-c3cccs3)cc1)C(c1ccsc1)=C2 (centres undefined)	-35	-68	-5.9	-0.8	i
CC(NC(=O)c1c(N)[nH]c(C(=O)c2ccccc2)c1-c1ccccc1Br)c1cccc2ccccc12 (centres undefined)	-26*	-7.8*	9.2*	-2.5	i

Entries of single compounds from above. Order of screens: Ecoli rRNA inh | Ecoli rRNA inh OD600 | Ecoli rRNA inh RFP | MLL AF4-AF9 inh | FGF22 binding
O=C(C[C@@H]1CC[C@@H]2[C@H](COC[C@H](O)CN2Cc2ccccc2)O1)NCc1ccccc1Cl as listed: -4 | 0 | -1.7 | -0.9 | i
COc1ccc2c(c1)C(CC(C)=O)N(c1ccc(-c3cccs3)cc1)C(c1ccsc1)=C2 (centres undefined) as listed: -35 | -68 | -5.9 | -0.8 | i
COCC(=O)N1[C@H](CO)[C@@H](c2ccccc2)C12CN(C(=O)c1ccc(F)cc1)C2 as listed: -1 | -2 | 2.9 | -3.1 | i
COc1ccc(S(=O)(=O)N(C)C[C@@H]2OCCCC[C@@H](C)Oc3ccc(NC(=O)Cc4ccccc4)cc3C(=O)N([C@@H](C)CO)C[C@H]2C)cc1 as listed: 0 | 4 | -0.6 | -0.6 | i
CN(C)C(=O)c1cccc(-c2cnc3cccnn23)c1 as listed: 11 | 6 | -0.9 | -0.3 | i

Following part:
SMILES	Ecoli rRNA inh	Ecoli rRNA inh OD600	Ecoli rRNA inh RFP	MLL AF4-AF9 inh	FGF22 binding
CO[C@H]1CN(C)C(=O)c2ccc(NC(=O)C3CCCCC3)cc2OC[C@@H](C)NC[C@@H]1C	-2	-1	0.9	-2.4	i
COc1cc(CN2C[C@@H](CO)O[C@@H](n3cnc4c(NCc5ccc(F)cc5)ncnc43)C2)cc(OC)c1OC	-1	-3	-2.5	1.4	i
COCC(=O)N[C@@H]1C=C[C@@H](CC(=O)NCc2ccccc2OC)O[C@H]1CO	2	6	-0.7	-1.1	i
C#CCN(C[C@@H](CC(C)C)NC(=O)OC(C)(C)C)S(=O)(=O)c1ccc(Br)cc1F	0	-5	-3.8	-2.2	i
Cc1ccc(S(=O)(=O)N(C)C[C@H]2OCCCC[C@@H](C)Oc3ccc(NC(=O)NC4CCCCC4)cc3C(=O)N([C@@H](C)CO)C[C@@H]2C)cc1	-1	2	-3.5	-4.3	i
Cc1noc(C)c1S(=O)(=O)N(C)C[C@H]1OCCCC[C@H](C)Oc2ccc(NC(=O)Nc3ccccc3)cc2C(=O)N([C@H](C)CO)C[C@H]1C	0	-8	-0.4	3.2	i
